Mtb hypoxia inh: Mtb hypoxia fluorescent reporter inhibition; 0.1% of 300,000 active; fluorescence inhibition, % (concentration not given with the values); M. tuberculosis hypoxia-regulated fluorescent reporter, fluorescence;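 active = 35 to 45% if threefold the growth effect, above 45% if 1.5-fold the growth effect; inactive = the rest, general growth blockers included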;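 note: wells of about 50 µL received 100 nL stock; 0% = vehicle wells and 100% = reference inhibitor wells; whole bacteria with a GFP reporter of the hypoxia response; strong numbers were not always called active; many hits fall short of the cut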
PrP 5UTR inh: inhibition of PrP 5' UTR reporter expression | cell-based PrP 5' UTR mRNA reporter, plate reader | inhibition, % (no concentration beside the values) | 0.35% of 340,000 active | AID 488862;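 active = every replicate at 50% or more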;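 note: 0 = median of the neutral control wells; tested in H4 reporter cells; numbers are from one replicate; inactives centre near -14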
Bead autofluor: counter-screen for toxin protease inhibitors: compound fluorescence; compound autofluorescence counterscreen, microsphere flow cytometry; stronger effect = higher value; fluorescence intensity (concentration not given with the values); AID 624483; 3.1% of 360,000 active;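 active = at least 3 SD above the mean of all compounds, about 16000 in these data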;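 note: 100 nL of 1 mM stock went into each well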
ugtP null kill: growth inhibition of S. aureus ugtP deletion strain. 0.54% of 330,000 active. AID 1259309. growth inhibition, % (concentration not given with the values). S. aureus RN4220 ugtP deletion, OD600 growth, 16 h; some inactives read as strong as hits;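 active = z-score under -3 and OD600 up to 0.15 on both plates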;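 note: plate controls were untreated wells for no effect and antibiotic for full effect; wells of about 80 µL received 100 nL stock; the first replicate is given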
BJeLR lethal: kills HRASV12-expressing BJeLR cells | BJeLR (HRASV12) viability, CellTiter-Glo ATP luminescence, 48 h; reference of the scale not given here | inhibition, % (no concentration beside the values) | 0.17% of 300,000 active | AID 1554;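 active = replicate mean above 50%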;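 note: 50 nL library stock added to about 25 µL; numbers are from one replicate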
RN4220 kill: S. aureus RN4220 growth inhibition. inhibition, % (concentration not given with the values). OD600, 16 h. AID 1259311. 0.33% of 330,000 active;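 active = z-score of -3 or lower and OD600 up to 0.18 on both plates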;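 note: plate controls were untreated cells for no effect and reference antibiotic for full effect; stock transfer was 100 nL into about 80 µL; one replicate is shown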
Mtb hypoxia inh growth: second read-out of Mtb hypoxia inh, no call of its own (marks repeat the call); growth inhibition, %; measured here: M. tuberculosis growth (absorbance);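 0% = vehicle and 100% = reference antibiotic; read after six days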
* marks the source's active call; other numbers are inactive results.

CCOc1ncccc1C(=O)Nc1cc(C(F)(F)F)ccc1N1CCOCC1 was read as Mtb hypoxia inh 2, PrP 5UTR inh -8, Bead autofluor 2912, ugtP null kill 9, RN4220 kill 8.3 and Mtb hypoxia inh growth -5.
`COc1ccc(CNC(=O)CCCn2ncn3c(cc4occc43)c2=O)cc1` gave Mtb hypoxia inh 3, PrP 5UTR inh -1, Bead autofluor 5375, ugtP null kill 6, BJeLR lethal -1, RN4220 kill 1.5 and Mtb hypoxia inh growth 4.
O=C(N/C(=C/c1cccc([N+](=O)[O-])c1)C(=O)N1CCOCC1)c1ccccc1Br was read as Mtb hypoxia inh -11, PrP 5UTR inh -15, Bead autofluor 6109, ugtP null kill -8, BJeLR lethal -3, RN4220 kill -1.8 and Mtb hypoxia inh growth -7.
CCCN(CCC)C(=O)c1ccc2c(c1)OCO2 was read as Mtb hypoxia inh 9, PrP 5UTR inh -18, Bead autofluor 9695, ugtP null kill 6, BJeLR lethal -8, RN4220 kill -0.6 and Mtb hypoxia inh growth 4.
`COc1ccc(/C=N/NC(=O)c2ccccc2O)cc1Cn1cc([N+](=O)[O-])cn1` gave PrP 5UTR inh -50, Bead autofluor 4620 and BJeLR lethal 8.
`COc1cccc2sc(N(CCN(C)C)C(=O)/C=C/c3cccs3)nc12` gave Mtb hypoxia inh 16, PrP 5UTR inh -3, Bead autofluor 4711, ugtP null kill 5, BJeLR lethal 9, RN4220 kill -1.1 and Mtb hypoxia inh growth 10.
Screening CCOC(=O)C1CCCN(Cc2nc(N)nc(Nc3ccccc3OC)n2)C1 (stereo not drawn) returned Mtb hypoxia inh 2, PrP 5UTR inh 1, Bead autofluor 4395, ugtP null kill 9, BJeLR lethal 2, RN4220 kill 3.4 and Mtb hypoxia inh growth 6.
CN1CCN(C(=O)c2ccc3c(c2)S(=O)(=O)c2ccccc2C3=O)CC1 was read as Mtb hypoxia inh 4, PrP 5UTR inh -17, Bead autofluor 3496, ugtP null kill -4, BJeLR lethal 11, RN4220 kill -12 and Mtb hypoxia inh growth 4.
Screening COc1ccc(N(CC(=O)NCc2ccc(Cl)cc2)S(=O)(=O)c2c(C)n[nH]c2C)cc1 returned Mtb hypoxia inh 11, PrP 5UTR inh -4, Bead autofluor 5880, ugtP null kill 0, BJeLR lethal 8, RN4220 kill 1.4 and Mtb hypoxia inh growth 6.
For Clc1ccc(OCc2nc(-c3ccncc3)no2)cc1 the results were Mtb hypoxia inh 3, PrP 5UTR inh -6, Bead autofluor 12250, ugtP null kill 6, BJeLR lethal 0, RN4220 kill 7.8 and Mtb hypoxia inh growth 4.
`CCCN1CCC2(CC1)NC(CO)(CO)CO2` gave Mtb hypoxia inh -3, PrP 5UTR inh -2, Bead autofluor 3525, ugtP null kill -8, BJeLR lethal -10, RN4220 kill -0.8 and Mtb hypoxia inh growth -1.
Screening CC(C)(C)c1ccc(S(=O)(=O)NCC(=O)N2CCN(Cc3ccccc3)CC2)cc1 returned Mtb hypoxia inh 7, PrP 5UTR inh -12, Bead autofluor 5895, ugtP null kill 1, BJeLR lethal 5, RN4220 kill 1.2 and Mtb hypoxia inh growth 2.
O=C(c1cc(Br)c(Br)s1)N1CCN(C/C=C/c2ccccc2)CC1 was read as PrP 5UTR inh -17, Bead autofluor 2619, ugtP null kill 9, BJeLR lethal -7 and RN4220 kill -0.8.
Screening COc1cccc(NC(=S)NC(=O)/C=C/c2ccco2)c1 returned Mtb hypoxia inh 6, PrP 5UTR inh -21, Bead autofluor 4210, ugtP null kill 79, BJeLR lethal -2, RN4220 kill -1.4 and Mtb hypoxia inh growth 10.
For O=[N+]([O-])c1ccccc1S(=O)(=O)Nc1ccc(-c2ccc(N3CCOCC3)nn2)cc1 the results were Mtb hypoxia inh -9, PrP 5UTR inh -47, Bead autofluor 5954, ugtP null kill -2, BJeLR lethal -5, RN4220 kill 2.9 and Mtb hypoxia inh growth 4.
CCOc1ccc(OCC)c(S(=O)(=O)NC2CC(C)(C)NC(C)(C)C2)c1 was read as Mtb hypoxia inh 1, PrP 5UTR inh -3, Bead autofluor 3366, ugtP null kill 4, BJeLR lethal 7, RN4220 kill 5.1 and Mtb hypoxia inh growth 8.
Screening O=C(c1sc(N2CCOCC2)nc1-c1ccccc1)N1CCCCC1 returned Mtb hypoxia inh -3, PrP 5UTR inh -1, Bead autofluor 2466, ugtP null kill 2, BJeLR lethal -9, RN4220 kill 4.5 and Mtb hypoxia inh growth 6.
Screening Clc1ncccc1-c1nc2ccccc2s1 returned Mtb hypoxia inh 11, PrP 5UTR inh -65, Bead autofluor 2508, ugtP null kill -3, BJeLR lethal 6, RN4220 kill 11 and Mtb hypoxia inh growth 0.
`CCC(C)C(=O)N1c2ccccc2C(=C2SC(C(=O)OC)=C(C(=O)OC)S2)C(=S)C1(C)C` (stereo not drawn) gave Mtb hypoxia inh 15, PrP 5UTR inh -13, Bead autofluor 2949, ugtP null kill 41, BJeLR lethal 3, RN4220 kill -7.5 and Mtb hypoxia inh growth 13.
CCN(CC)S(=O)(=O)c1cccc(C(=O)NN=C(C)c2ccc(O)cc2O)c1 was read as Mtb hypoxia inh 9, ugtP null kill 8, RN4220 kill 7.7 and Mtb hypoxia inh growth 8.

Three entries already listed, ordered by molar mass, largest number first.
O=C(c1cc(Br)c(Br)s1)N1CCN(C/C=C/c2ccccc2)CC1 was read as PrP 5UTR inh -17, Bead autofluor 2619, ugtP null kill 9, BJeLR lethal -7 and RN4220 kill -0.8.
`COc1cccc2sc(N(CCN(C)C)C(=O)/C=C/c3cccs3)nc12` gave Mtb hypoxia inh 16, PrP 5UTR inh -3, Bead autofluor 4711, ugtP null kill 5, BJeLR lethal 9, RN4220 kill -1.1 and Mtb hypoxia inh growth 10.
CCCN(CCC)C(=O)c1ccc2c(c1)OCO2 was read as Mtb hypoxia inh 9, PrP 5UTR inh -18, Bead autofluor 9695, ugtP null kill 6, BJeLR lethal -8, RN4220 kill -0.6 and Mtb hypoxia inh growth 4.

Further entries follow:
O=C(NC(Cc1ccccc1)C(=O)O)C(=Cc1ccccc1)NC(=O)c1cccc(Br)c1 (stereo not drawn) was read as Mtb hypoxia inh 2, ugtP null kill 1, RN4220 kill 8.2 and Mtb hypoxia inh growth 1.
CCOC(=O)Cc1csc(SCC(=O)/C(C#N)=C(\C)N)n1 was read as PrP 5UTR inh -22, Bead autofluor 4741, ugtP null kill 6, BJeLR lethal 0 and RN4220 kill 8.9.
Screening CCOC(=O)c1ccccc1NC(=O)/C=C/c1cc(OC)c(OC)c(OC)c1 returned PrP 5UTR inh -3, Bead autofluor 2312, ugtP null kill 4, BJeLR lethal 4 and RN4220 kill 0.1.
Screening Cc1ccc(OC(=O)CCC(=O)Nc2ccc(C(N)=O)cc2)cc1 returned Mtb hypoxia inh 5, PrP 5UTR inh -13, Bead autofluor 3264, ugtP null kill 5, BJeLR lethal -6, RN4220 kill 0.5 and Mtb hypoxia inh growth -2.
`CN(C(=O)c1ccncc1)C1CCCCC1` gave Mtb hypoxia inh 12, PrP 5UTR inh 1, Bead autofluor 3868, ugtP null kill 4, BJeLR lethal -1, RN4220 kill 4.1 and Mtb hypoxia inh growth 9.
For S=C(NCCc1ccccc1)Nc1ccc(Nc2ccccc2)cc1 the results were Mtb hypoxia inh -2, PrP 5UTR inh -14, Bead autofluor 4654, ugtP null kill -4, BJeLR lethal 4, RN4220 kill 8.9 and Mtb hypoxia inh growth 4.
O=C1c2ccccc2C(=O)N1c1ccc(Br)c2cccnc12 was read as Mtb hypoxia inh 6, PrP 5UTR inh -31, Bead autofluor 2118, ugtP null kill -12, BJeLR lethal -17, RN4220 kill 5.9 and Mtb hypoxia inh growth 16.
Screening O=C(CSc1nnc(-c2ccccc2)n1-c1ccccc1)c1cccs1 returned PrP 5UTR inh -9, Bead autofluor 21163* and BJeLR lethal 3.
`Cc1cc(C)nc(NS(=O)(=O)c2ccc(NC(=O)COc3ccccc3F)cc2)n1` gave Mtb hypoxia inh 5, PrP 5UTR inh -15, Bead autofluor 9220, ugtP null kill 4, RN4220 kill 7.7 and Mtb hypoxia inh growth 7.
`C=CCNC(=S)/N=c1/ccccn1CCC` gave PrP 5UTR inh -6, Bead autofluor 6463 and BJeLR lethal -12.
For O=C(CN(C(=O)c1csnn1)c1ccccc1Cl)NC1CCCCC1 the results were Mtb hypoxia inh -6, PrP 5UTR inh -6, Bead autofluor 5973, ugtP null kill -2, BJeLR lethal -5, RN4220 kill 0.7 and Mtb hypoxia inh growth 3.
`O=C1C=C(N(CCO)CCO)C2(CCCCC2)O1` gave Mtb hypoxia inh 4, PrP 5UTR inh -15, Bead autofluor 22987*, ugtP null kill 0, BJeLR lethal -3, RN4220 kill 3.6 and Mtb hypoxia inh growth 5.
CCNc1nc(NC(C)C)nc(NS(=O)(=O)c2ccc(C)cc2)n1 was read as Mtb hypoxia inh -7, PrP 5UTR inh -27, Bead autofluor 3867, ugtP null kill 1, BJeLR lethal -6, RN4220 kill 0.1 and Mtb hypoxia inh growth 9.
For COC(=O)[C@]1(C)N[C@H](CN(C)C(=O)c2ccccc2)[C@@H]2C(=O)N(C)C(=O)[C@@H]21 the results were Mtb hypoxia inh 1, PrP 5UTR inh -5, Bead autofluor 3156, ugtP null kill 2, RN4220 kill 0.6 and Mtb hypoxia inh growth -2.
Screening c1ccc(CN2CCc3nc4ccccc4cc3C2)cc1 returned PrP 5UTR inh -34, Bead autofluor 3976, ugtP null kill 12, BJeLR lethal -11 and RN4220 kill -0.4.
Screening O=C(NC1CCOC1=O)c1ccccc1 (stereo not drawn) returned Mtb hypoxia inh 2, PrP 5UTR inh -10, Bead autofluor 3733, ugtP null kill -2, RN4220 kill 1.6 and Mtb hypoxia inh growth 10.
For Cc1cc(C)c(S(C)(=O)=O)c(S(=O)(=O)c2ccc(Cl)cc2)n1 the results were Mtb hypoxia inh -3, PrP 5UTR inh -9, Bead autofluor 3085, ugtP null kill -2, BJeLR lethal -11, RN4220 kill 2.7 and Mtb hypoxia inh growth 0.
`COc1cccc(NC(=O)CN(C)C(=O)CCC(=O)c2cc(C)sc2C)c1` gave Mtb hypoxia inh 2, PrP 5UTR inh -6, Bead autofluor 4033, ugtP null kill 2, RN4220 kill 1.8 and Mtb hypoxia inh growth 4.
COc1cc(C2C3=C(CCCC3=O)Nc3[nH]n(-c4ccccc4)c(=O)c32)ccc1O (stereo not drawn) was read as Mtb hypoxia inh -2, PrP 5UTR inh -20, Bead autofluor 7743, ugtP null kill 17, RN4220 kill 0.6 and Mtb hypoxia inh growth 6.

Already shown: entries from further up.
`COc1ccc(CNC(=O)CCCn2ncn3c(cc4occc43)c2=O)cc1` gave Mtb hypoxia inh 3, PrP 5UTR inh -1, Bead autofluor 5375, ugtP null kill 6, BJeLR lethal -1, RN4220 kill 1.5 and Mtb hypoxia inh growth 4.
O=C(N/C(=C/c1cccc([N+](=O)[O-])c1)C(=O)N1CCOCC1)c1ccccc1Br was read as Mtb hypoxia inh -11, PrP 5UTR inh -15, Bead autofluor 6109, ugtP null kill -8, BJeLR lethal -3, RN4220 kill -1.8 and Mtb hypoxia inh growth -7.
CCCN(CCC)C(=O)c1ccc2c(c1)OCO2 was read as Mtb hypoxia inh 9, PrP 5UTR inh -18, Bead autofluor 9695, ugtP null kill 6, BJeLR lethal -8, RN4220 kill -0.6 and Mtb hypoxia inh growth 4.

Rows were taken by chance. Share with any hit: about 4%.
